# PKD1 inh: blocks activity of human protein kinase D1; PKD1 kinase fluorescence polarization assay; inhibition, %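 (about 10 µM by stock and volumes)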; actives 0.056% (n = 200,000);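 active = inhibition of 50% or more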;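 also: controls were vehicle for no effect and a reference inhibitor for full effect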
# Target sequence (Q15139 whole entry, looked up): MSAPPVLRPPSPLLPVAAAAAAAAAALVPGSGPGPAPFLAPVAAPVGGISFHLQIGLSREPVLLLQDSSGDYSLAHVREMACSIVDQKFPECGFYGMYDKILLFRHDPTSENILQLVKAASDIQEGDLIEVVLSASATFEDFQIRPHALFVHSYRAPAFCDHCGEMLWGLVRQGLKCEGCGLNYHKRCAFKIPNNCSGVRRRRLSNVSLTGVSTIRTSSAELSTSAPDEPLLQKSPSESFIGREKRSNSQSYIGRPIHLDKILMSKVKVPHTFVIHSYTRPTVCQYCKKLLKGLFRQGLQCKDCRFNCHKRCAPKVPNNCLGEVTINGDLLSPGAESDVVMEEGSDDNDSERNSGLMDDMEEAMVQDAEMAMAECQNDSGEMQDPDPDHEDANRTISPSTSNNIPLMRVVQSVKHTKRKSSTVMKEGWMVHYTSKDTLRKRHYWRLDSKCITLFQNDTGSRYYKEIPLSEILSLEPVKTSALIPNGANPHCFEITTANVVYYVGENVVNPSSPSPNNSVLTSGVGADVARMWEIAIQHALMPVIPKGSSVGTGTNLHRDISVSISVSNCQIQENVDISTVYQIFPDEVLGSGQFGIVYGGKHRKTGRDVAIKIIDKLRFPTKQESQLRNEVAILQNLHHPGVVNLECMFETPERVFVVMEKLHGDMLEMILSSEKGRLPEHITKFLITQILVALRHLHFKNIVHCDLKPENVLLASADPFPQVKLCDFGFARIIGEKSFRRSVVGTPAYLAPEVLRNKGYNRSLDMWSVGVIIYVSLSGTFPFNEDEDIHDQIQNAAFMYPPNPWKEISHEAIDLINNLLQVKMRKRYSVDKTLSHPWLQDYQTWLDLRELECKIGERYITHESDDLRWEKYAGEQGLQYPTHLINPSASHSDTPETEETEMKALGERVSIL
# RGS16-Gao: modulates binding between human RGS16 and Galphao. O15492+P09471. bead-based flow cytometry RGS16-Galphao binding, fluorescence; actives lie on both sides. binding response (% of control), % at 10 µM. actives 0.38% (n = 220,000). AID 1441;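 active = below 25% or above 175%, edge rows of some plates excepted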;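 also: Galphao activated by GDP with aluminum fluoride before binding; 100% = wells without compound and 0% = beads without RGS; some results beyond the cut were filed as inactive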
# Insulin prom inh: TRM-6 insulin promoter activity inhibition. TRM-6 cells (human fetal islet line), insulin promoter-eGFP reporter, imaging; reporter expression induced with tamoxifen. inhibition, % at 2 µM. actives 0.9% (n = 130,000). AID 1273;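 active = inhibition above the mean plus 3 SD, with well images judged a real hit on visual review, cut at about 60% in these data, passing the limit was not always enough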
# HSV augment: increases HSV replication in cells; HSV replication augmentation in cells, fold increase; maximum fold increase; actives 0.005% (n = 220,000);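 active = peak rise of 1.5-fold or more in the series; tested in PC3 cells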;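 also: first round at 10 µM; read as green reporter fluorescence; hits show the peak of a series up to 25 µM; 1 = signal of infected wells without compound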
# GALR2 ag: agonists of human galanin receptor 2 (GALR2). O43603. GALR2-expressing cells, agonist activation read-out. activation, %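 (tested at 5 µM)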. actives 0.48% (n = 140,000). AID 803;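 active = above mean plus 3 SD of all compounds, about 5% in these data, not always enough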;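 also: 0% = vehicle buffer wells and 100% = reference agonist at full effect; tested in CHO reporter cells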
# Insulin prom inh cell count: recorded beside Insulin prom inh, whose call it bears; normalized cell count, %; measured here: cell count, toxicity; reference of the scale not given here;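 cells exposed to compound for 48 h; stained nuclei by imaging scaled within each plate; lower means fewer cells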
# HSV augment primary fold: second read-out of HSV augment, no call of its own (marks repeat the call); fold increase; compound at 10 µM; measured here: primary screen fold increase 10 uM; tested in PC3 cells;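 GFP signal in the first replicate; 1 = infected wells without compound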
# The depositor's hits bear a star; i = inactive; . = not tested or not shown.
SMILES,PKD1 inh,RGS16-Gao,Insulin prom inh,Insulin prom inh cell count,HSV augment,HSV augment primary fold,GALR2 ag
CC(=O)Nc1ccc(S(=O)(=O)Nc2cccc(-c3ccc4nncn4n3)c2)cc1,7,109,-56,144,i,0.98,.
Cc1cc(C)n(C(C[N+](=O)[O-])c2ccc(Cl)cc2)n1 (stereo unspecified),-1,89,14,104,i,0.9,-3.2
COc1cc(C(=O)Nc2cc(C)c(OCC(=O)N3CCOCC3)c(C)c2)cc(OC)c1OC,-1,104,6,73,i,0.84,-1.9
Cc1c(NC(=S)N/N=C/c2cccc(O)c2)c(=O)n(-c2ccccc2)n1C,-7,100,.,.,i,0.89,-2.8
O=C(Cc1ccc(Cl)cc1)NCC(=O)N1CCCC1,-4,99,53,100,i,1,-3.8
CCN(CC)S(=O)(=O)c1ccc(NC(=O)CSc2nnc(-c3cccc(OC)c3)n2C)cc1,4,81,34,137,i,1.2,-1.1
O=C(NC(=S)Nc1ccccc1)c1ccc(-c2ccccc2)cc1,-3,108,25,165,i,1,-0.7
O=C(NCC(=O)N(CCN1CCOCC1)C(C(=O)NC1CCCC1)c1cccnc1)c1cccs1 (stereo unspecified),-6,97,7,101,i,1,-3.9
CCCCn1c(O)c(N=NC(=O)c2ccccc2NS(=O)(=O)c2cccs2)c2ccccc21,4,102,31,137,i,0.91,-1.2
Cc1c(C(=O)N2CCN(c3ccccn3)CC2)sc2ncnc(N3CCN(c4ccccc4)CC3)c12,-5,.,14,128,i,0.83,-1.9
CCOC(=O)c1ccc(NC(=O)Nc2ncccc2C)cc1,-2,92,.,.,i,0.99,.
COc1ccc2nc(C(C)O)[nH]c2c1 (stereo unspecified),-8,189,3,117,i,0.9,-1.3
Cn1c(SCC(=O)Nc2nccs2)nnc1C12CC3CC(CC(C3)C1)C2,-7,102,0,87,i,0.93,-1.0
CN1/C(=C\C(=O)CSc2cccc[n+]2[O-])C(C)(C)c2ccccc21,-8,100,.,.,i,1,.
Nc1ccc(OCC(O)C[n+]2ccc(CCS(=O)(=O)[O-])cc2)cc1 (stereo unspecified),0,98,.,.,i,0.89,.
CCCCNC(=O)c1sc(=S)n(-c2ccccc2OC)c1N,7,60,14,75,i,0.98,-0.7
COc1ccc(C2CCCN2C(=O)Nc2cccc(C(C)=O)c2)cc1OC (stereo unspecified),2,108,.,.,i,1,-0.8
C#CCOCCOCCOCCNc1nc(N2CCOCC2)nc(N2CCN(C(=O)[C@H](C)n3cc(CCCN=C(N)N)nn3)CC2)n1,2,101,23,78,i,0.85,-1.0
COCCn1c(SCC(=O)Nc2ccc(Cl)cn2)nc2ccccc21,-14,85,-22,95,i,0.88,-0.7
C=CCCN(C(CC(C)C)C(=O)OC)S(=O)(=O)c1cc(Br)ccc1Br (stereo unspecified),.,77,.,.,i,0.95,.
NC(=O)COc1ncn(-c2ccccc2)n1,-7,107,-8,128,i,1,-3.7
CCCNC(=O)c1ccc2c(=O)c(O)c(-c3ccc(C)cc3)[nH]c2c1,.,81,.,.,i,1.1,.
CC(/C=N\NC(=O)Cn1c(C)nc2ccccc21)=C\c1ccccc1,-1,98,-13,107,.,.,0.8
COc1ccc(C(=O)c2c(N)sc3c2CCN(C(=O)OC(C)(C)C)C3)cc1,.,93,.,.,i,0.92,.
CC(NC(=O)c1ccccc1NC(=O)c1ccccc1)C(=O)N1CCOCC1 (stereo unspecified),-2,100,-62,49,.,.,-1.7
OCC1(CCOc2ccccc2)CCN(Cc2nc3ccc(F)cc3[nH]2)CC1,0,103,-61,137,i,0.87,.
CC(C)OC(=O)CSc1nc(-c2ccc(F)cc2)nc2ccc(F)cc12,-6,102,12,139,i,0.8,-1.1
COc1ccccc1C1/C(=C(/O)c2ccccc2)C(=O)C(=O)N1CCO (stereo unspecified),9,103,-33,142,i,0.93,0.0
Clc1ccc2nc(N3CCN(c4ccccc4)CC3)sc2c1,-6,27,-120,122,i,0.94,-0.8
O=C(Nc1ccc(Br)cc1Cl)c1cnccn1,-8,100,12,121,i,0.83,-0.4
COc1cc(C2C3=C(CC(C)(C)CC3=O)N(C)C(=O)N2C)cc(OC)c1OC (stereo unspecified),-8,94,35,123,i,0.83,-1.0
O=C(CC1SC(=Nc2ccccc2)N(Cc2ccccn2)C1=O)Nc1cccc(Cl)c1 (stereo unspecified),3,80,.,.,i,1,-0.4
CCN(CC)CCNC(=O)c1ccc2c(=O)n(CCc3ccccc3)c(=O)[nH]c2c1,4,100,.,.,i,0.91,-2.0
COc1ccc(CCn2ccc(O)c(Cc3ccc(Cl)cc3)c2=O)cc1OC,-4,103,.,.,i,1,.
CSc1ccccc1NC(=O)CN(C)CC(=O)Nc1ccc(N2CCOCC2)cc1,4,113,31,94,i,1.1,.
CN1CCN(C(=O)c2ccccc2N(Cc2ccccc2)S(C)(=O)=O)CC1,-12,109,33,96,i,0.95,-1.7
C=CCOc1c(Br)cc(CNn2nnnc2N)cc1OCC,-15,117,-42,167,i,0.91,-2.2
Cc1cc(C)c(S(=O)(=O)N2CCN=C2c2ccccc2)c(C)c1,-5,105,19,71,i,1.1,0.4
Cc1cc2ncc(S(C)(=O)=O)c(N)n2n1,2,108,28,140,i,0.97,.
Fc1ccc(N2CCN(c3ccc4c(C(F)(F)F)cc(C(F)(F)F)nc4n3)CC2)cc1,3,121,50,67,i,0.92,-2.2
CC(Nc1[nH]c(=O)n(C)c(=O)c1N=O)c1ccccc1 (stereo unspecified),3,73,0,82,i,0.89,.
COCCn1c(SCC(=O)Nc2ccc3c(c2)OCCO3)nc2c(c1=O)SC(C)C2 (stereo unspecified),-5,56,-57,39,i,0.96,-0.6
CC(O)CCC(=O)NNC1CC(=O)N(c2ccccc2)C1=O (stereo unspecified),.,102,.,.,i,0.85,.
NC(=S)N/N=C/c1ccc(-c2cccc([N+](=O)[O-])c2)o1,-4,96,.,.,.,.,-0.7
CCC(CC)C(=O)N(CCc1ccc(OC)cc1)Cc1nc2ccccc2c(=O)[nH]1,-12,97,-45,106,i,0.83,-1.0
O=C1Nc2c(c(=O)[nH]c(=O)n2-c2ccccc2)C(C(F)(F)F)(C(F)(F)F)N1,-3,98,27,66,i,0.81,-2.2
CC(O)CNC(=S)Nc1ccccc1 (stereo unspecified),-5,109,21,67,i,0.67,.
CCc1c(C)[nH]n(CCC#N)c1=O,-11,99,.,.,i,0.74,0.1
CC(=O)CSc1nsc(SCC(C)=O)c1C#N,4,100,-25,98,i,1,-2.8
COc1ccc(C)cc1NC(=O)CSc1nnc(CC(=O)Nc2cccc(C(F)(F)F)c2)n1C,-3,99,24,115,i,0.88,-2.8
# New compounds follow:
SMILES,PKD1 inh,RGS16-Gao,Insulin prom inh,Insulin prom inh cell count,HSV augment,HSV augment primary fold,GALR2 ag
Cc1[nH]c2ccccc2c1C(=O)COC(=O)c1ccc2c(=O)n3c(nc2c1)CCC3,-3,108,.,.,i,0.91,.
Cc1cc(O)cc(=O)n1C,-10,121,0,82,.,.,.
CCCCN(CCCNC(=O)CN1C(=O)COc2ccccc21)c1ccccc1,-9,101,.,.,i,0.83,-1.6
CCn1c(C(=O)NCc2cccnc2)cc2sc(Cl)cc21,-5,93,.,.,.,.,-1.2
NNC(=O)Cn1c2ccccc2c2ccccc21,.,102,.,.,i,0.89,.
Cc1ccc(S(=O)(=O)N2CCC(C(=O)N(C)C3CCS(=O)(=O)C3)CC2)cc1 (stereo unspecified),-7,105,17,34,i,1.1,-1.3
Cn1c(N2CCOCC2)c(/C=N/OC(=O)c2ccc(F)cc2)c2ccccc21,-9,100,.,.,i,0.56,0.6
Cc1ccc([N+](=O)[O-])cc1NC(=O)c1cccs1,-3,107,.,.,i,0.84,.
Cc1ccc(N2CC(C(=O)NC3=NCCS3)CC2=O)cc1C (stereo unspecified),1,104,27,56,i,1.3,-1.5
Cc1cccc(NS(=O)(=O)c2c(C)noc2C)c1,2,108,64,72,i,1,.
CC(=O)c1cccc(NC(=O)Cc2ccc3c(c2)CCCC3)c1,-19,56,.,.,i,0.78,-1.9
Cc1ccc(S(=O)(=O)Nc2c(C)n(C)n(-c3ccccc3)c2=O)cc1C(=O)OCC(=O)N1CCCC(C)C1 (stereo unspecified),-7,102,.,.,i,0.89,.
Cc1ccc(NC(=O)CSc2nnc(CCCCCNC(=O)OC(C)(C)C)o2)c(C)c1,-4,134,0,83,i,0.88,-0.6
CCN(CCO)Cc1csc2cccc(Br)c12,-1,103,.,.,.,.,-1.6
COc1cc(/C=C/C(=O)OCC(=O)NCc2ccco2)ccc1OCC#N,-10,97,.,.,i,0.99,.
OCCC1CN(Cc2nc3c(s2)CCCC3)CCN1Cc1ccccc1 (stereo unspecified),.,92,.,.,i,1.1,.
COC(=O)N/N=C1/C/C(=N\NC(=O)OC)c2ccccc21,-16,102,.,.,i,0.8,.
CCCCSc1nc(C)cc(SCC(=O)N/N=C/c2cccc(OC)c2O)n1,-1,101,.,.,.,.,-1.1
O=C(/C=C/c1ccccc1)Oc1cccc2cccnc12,.,66,.,.,i,0.91,.
C=C(C)CNC(=S)Nc1ccc(S(=O)(=O)Nc2cnc3ccccc3n2)cc1,.,121,.,.,i,0.94,.

# Only GALR2 ag, Insulin prom inh and PKD1 inh, for 3 of the compounds above:
canonical_smiles,GALR2 ag,Insulin prom inh,PKD1 inh
Cc1ccc(S(=O)(=O)Nc2c(C)n(C)n(-c3ccccc3)c2=O)cc1C(=O)OCC(=O)N1CCCC(C)C1 (stereo unspecified),.,.,-7
Cc1ccc(NC(=O)CSc2nnc(CCCCCNC(=O)OC(C)(C)C)o2)c(C)c1,-0.6,0,-4
CCN(CCO)Cc1csc2cccc(Br)c12,-1.6,.,-1

# (cont.)
SMILES,PKD1 inh,RGS16-Gao,Insulin prom inh,Insulin prom inh cell count,HSV augment,HSV augment primary fold,GALR2 ag
Cc1cccc(NC2=Nc3ccccc3N3C2=Nc2c(c(C)nn2-c2ccccc2)C3c2ccc(O)c(O)c2)c1 (stereo unspecified),1,98,19,131,i,0.83,3.2
CCN(CC(=O)NC(C)(C)C)C(=O)CCl,-4,97,-39,82,i,1.1,1.1
COc1ccc(/C=N/Nc2nc(-c3ccc(C)cc3)c(NC(C)=O)s2)cc1OC,.,96,.,.,i,0.99,.
O=C(Nc1ccncc1)c1ccc2c(c1)C(=O)N(CC1CCCO1)C2=O (stereo unspecified),-9,102,-37,94,i,0.99,-0.7
Nc1nnnn1/N=C/c1ccco1,-3,93,.,.,i,0.84,-3.2
O=C(O)CCC(=O)N1CCc2cc(S(=O)(=O)N3CCC(Cc4ccccc4)CC3)ccc21,-13,101,.,.,i,0.89,-1.9
CCc1ccc(NC(=O)c2noc3c2CCc2ccccc2-3)cc1,-1,93,23,75,i,0.9,0.7
O=C(O)C1CCCCC1C(=O)Nc1nc(-c2ccc(Cl)s2)cs1 (stereo unspecified),-1,98,.,.,i,0.97,.
CSc1ccc(CN2CCC(C(=O)NCc3ccc(C)cc3)CC2)cc1,12,100,.,.,i,0.95,.
O=C(NC1CC1)c1ccc(S(=O)(=O)NCC2CCCCC2)cc1,-11,96,-42,66,i,1.1,0.2
O=C1CSC(c2ccco2)N1 (stereo unspecified),0,99,.,.,i,1,-1.0
CC1(C)Nc2ccccc2C(=O)N1NS(=O)(=O)c1ccccc1,-9,99,-10,158,i,0.96,0.0
O=C(Nc1cccc([N+](=O)[O-])c1)c1ccc2ccccc2c1O,.,101,.,.,i,0.9,.
CCc1c(C)c2cc(Cl)c(O)c(CN(CC)CC)c2oc1=O,2,98,-119,99,i,0.92,6.3
COC(=O)C1=C(C)N(CCc2ccccc2)C(=O)C1,-2,101,30,102,i,0.99,-2.1
CCC1(CC)NC(=O)N(CC(=O)OCC(=O)NC(=O)c2ccc(Cl)cc2)C1=O,1,98,.,.,i,0.95,.
O=C1CCCC2=C1C(c1cccc(O)c1)c1c(ccc3ncccc13)N2 (stereo unspecified),3,101,-7,100,i,0.82,.
Cc1cccc(-n2c(=O)[nH]c3c(C(N)=O)nc(C(C)C)nc32)c1,-1,75,57,83,i,0.92,1.1
CC1CN(C(=O)/C=C/c2ccc3c(c2)OCO3)CC(C)O1 (stereo unspecified),5,95,25,58,i,0.96,-0.9

# Three structures already listed, sorted by formula weight, smallest number first:
SMILES,PKD1 inh,RGS16-Gao,Insulin prom inh,Insulin prom inh cell count,HSV augment,HSV augment primary fold,GALR2 ag
O=C1CSC(c2ccco2)N1 (stereo unspecified),0,99,.,.,i,1,-1.0
O=C(Nc1cccc([N+](=O)[O-])c1)c1ccc2ccccc2c1O,.,101,.,.,i,0.9,.
CCc1c(C)c2cc(Cl)c(O)c(CN(CC)CC)c2oc1=O,2,98,-119,99,i,0.92,6.3
